Compound activity: PubChem BioAssay, several laboratories
UCH37 inh = blocks the human deubiquitinase UCH37; Q9Y5K5; purified proteasome/UCH37, Ub-AMC cleavage fluorescence; inhibition, % (test concentration not listed); hit rate 0.33% among 330,000; AID 588478;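 active = mean of two replicates above 20%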;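 note: 0% = compound-free wells with enzyme and 100% = wells lacking proteasome; stock transfer was 100 nL into about 20 µL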
Target sequence (Q9Y5K5 whole entry, looked up): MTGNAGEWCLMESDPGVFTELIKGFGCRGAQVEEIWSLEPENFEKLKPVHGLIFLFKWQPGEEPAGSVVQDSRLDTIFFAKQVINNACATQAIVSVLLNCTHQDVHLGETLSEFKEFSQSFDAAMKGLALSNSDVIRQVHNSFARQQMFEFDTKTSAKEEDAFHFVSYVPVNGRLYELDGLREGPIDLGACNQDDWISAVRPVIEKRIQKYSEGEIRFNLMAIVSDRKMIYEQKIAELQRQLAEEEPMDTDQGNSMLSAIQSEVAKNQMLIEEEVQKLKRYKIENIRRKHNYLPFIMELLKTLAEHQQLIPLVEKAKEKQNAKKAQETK
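Schedule: 30 min plus 25 min, room temperature / Material: human UCH37 within purified proteasomes / Technique: AMC fluorescence intensity at 355/460 nm / Buffer or medium: pH 7.4 Tris-HCl (50 mM) with ovalbumin, ATP-MgCl2, DTT / Controls: wells without proteasome as full block, compound-free enzyme plus substrate as uninhibited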
FGF22 binding = FGF22 (human) thermal shift binding. recombinant FGF22 thermal shift, SYPRO orange fluorescence; percent of sucrose octasulfate shift, DMSO zero. calls only at 9.99 µM. hit rate 1.5% among 340,000. AID 651658;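 active = melting point raised past a set limit in the mean and every replicate; three in four hits are not shown here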
Target sequence (Q9HCT0 whole entry, looked up): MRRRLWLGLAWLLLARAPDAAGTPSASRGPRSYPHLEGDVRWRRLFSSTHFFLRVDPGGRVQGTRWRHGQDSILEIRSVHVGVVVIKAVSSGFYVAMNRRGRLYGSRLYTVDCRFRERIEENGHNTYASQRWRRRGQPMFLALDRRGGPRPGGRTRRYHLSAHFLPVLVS
E coli growth = blocks Escherichia coli growth | OD600, 23 h; hits give low values | OD600 absorbance (concentration not given with the values) | hit rate 0.21% among 330,000;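 active = OD600 absorbance below the run mean of sample wells minus 3.6 SD, in any replicate, cut at about 0.56 in these data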;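 note: stock transfer was 300 nL into about 60 µL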
Beta2AR agonist = human beta-2 adrenergic receptor agonism by FAP. Am2.2-beta2AR cells, FAP receptor internalization, flow cytometry; reference of the scale not given here. response, % (test concentration not listed). hit rate 0.43% among 340,000. AID 504454;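 active = response above a set limit, near 3 SD of response in nonfluorescent compounds, cut at about 42% in these data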;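 note: stock transfer was 100 nL into about 11 µL; a reference agonist was the positive control; negative values mostly stem from fluorescent compounds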
ALR H2O2 inh = inhibitors of human sulfhydryl oxidase ALR. AID 485317. P55789. hit rate 3.8% among 290,000. inhibition, % (test concentration not listed). purified ALR, DTT oxidation, H2O2 HRP-luminol luminescence;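 active = mean and each replicate at 75% or more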;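 note: stock transfer was 7.5 nL into about 7.5 µL; 0% = neutral wells and 100% = wells with inactivated enzyme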
HNF4A DNA FP = change in binding of human HNF4 alpha to DNA | HNF4a-FITC DNA binding, fluorescence polarization, 1 h | activity change, % at 10 µM | hit rate 0.3% among 360,000 | AID 1224865; in the data active = activity change above about 30%, passing the limit was not always enough;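 note: controls were the assay level and a saturating level of protein; the project sought stronger binding though the title names inhibitors; some compounds called inactive have numbers as strong as hits; positive values seem to mean higher polarization but the record does not say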
Target sequence (P41235 whole entry, looked up): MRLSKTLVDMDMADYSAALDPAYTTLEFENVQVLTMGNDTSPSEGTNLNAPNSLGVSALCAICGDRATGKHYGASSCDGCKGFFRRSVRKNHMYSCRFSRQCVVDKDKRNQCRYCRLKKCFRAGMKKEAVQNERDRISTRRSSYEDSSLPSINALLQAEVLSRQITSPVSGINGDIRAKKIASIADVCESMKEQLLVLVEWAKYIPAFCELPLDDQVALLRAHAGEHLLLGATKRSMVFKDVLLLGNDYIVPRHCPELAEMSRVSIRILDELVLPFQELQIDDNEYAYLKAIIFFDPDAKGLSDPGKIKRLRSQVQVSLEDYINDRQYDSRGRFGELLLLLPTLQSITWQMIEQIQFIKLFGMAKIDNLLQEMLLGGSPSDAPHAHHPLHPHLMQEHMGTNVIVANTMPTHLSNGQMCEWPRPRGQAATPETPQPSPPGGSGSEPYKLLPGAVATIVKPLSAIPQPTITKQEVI
Ecoli rRNA inh = inhibitors of bacterial rRNA selective over humanized ribosomes; E. coli WT GFP vs humanized-ribosome RFP mutants, fluorescence, 24 h; hits give low values; DMSO median 0, no signal -100; GFP signal change (wild-type ribosome), % (no concentration beside the values); hit rate 1.6% among 350,000; AID 720706;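 active = significant combined selectivity score with lowered wild-type GFP, culture density cut under 30%, mutant RFP and density less affected; inactive = any of these conditions unmet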; note: one replicate is shown; some compounds called inactive have numbers as strong as hits
Ecoli rRNA inh OD600 = second read-out of Ecoli rRNA inh, no call of its own (marks repeat the call); OD600 change, %; measured here: OD600 growth;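 optical density of the mix in the first replicate; 0 = DMSO median and -100 = no signal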
Ecoli rRNA inh RFP = further read-out of Ecoli rRNA inh, marked with its call; RFP signal change, %; measured here: RFP humanized mutant strains;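 first replicate; 0 = DMSO median and -100 = no signal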
Starred values were filed as active, the others as inactive; i = inactive; . = not tested or not shown. Only part of the results is shown (hit frequency here may not be typical).

SMILES	UCH37 inh	FGF22 binding	E coli growth	Beta2AR agonist	ALR H2O2 inh	HNF4A DNA FP	Ecoli rRNA inh	Ecoli rRNA inh OD600	Ecoli rRNA inh RFP
Cc1c(N(C)S(=O)(=O)c2cc(C(=O)Nc3ccccn3)ccc2Cl)c(=O)n(-c2ccccc2)n1C	0.2	i	0.68	-1	-14	-0.6	13	15	2.6
O=C(Nc1ccc(Nc2ccncc2)cc1)c1ccc(Nc2ccnc3ccc([N+](=O)[O-])cc23)cc1[N+](=O)[O-]	3.4	i	0.67	22	8	5.4	12	17	2.1
CC1=C(C(=O)OC(C)C)C(c2cccc([N+](=O)[O-])c2)n2c(cc(=O)[nH]c2=S)N1 (stereo unspecified)	7.8	i	0.71	-9	10	-4.0	-3	9	9.4
CCOc1cc(C(=O)N/N=C\c2cn(CC)nc2C)cc(OCC)c1OCC	.	.	.	-9	-3	1.3	.	.	.
O=C(CN1CCC(NC(=O)C2CC2)CC1)Nc1ccccc1[N+](=O)[O-]	2.8	i	0.69	-8	-20	0.2	2	-2	-1.8
COc1ccc(Oc2ccc(/C=C/C(=O)c3ccc(O)cc3)cc2[N+](=O)[O-])cc1	8.1	i	0.75	40	96*	-3.9	.	.	.
O=C(CN1CCOCC1)Nc1scc(-c2ccccc2)c1C(=O)N1CCOCC1	-1.5	.	0.66	-5	-4	3.2	.	.	.
COc1cccc(CNc2nccs2)c1O	1.7	i	0.61	-1	88*	-4.5	12	6	0.1
Cc1cc(NC(=O)C(C)C)ncc1NC(=O)c1cccc(F)c1	2.0	.	0.69	6	-7	-0.2	.	.	.
CC(=O)Oc1ccc(C(=O)O)c(OC(C)=O)c1	-1.4	i	0.65	3	3	5.0	-7	4	0.0
CCCCNC(=O)C(NC(=O)c1cccc2ccccc12)C(=O)c1ccccc1 (stereo unspecified)	.	i	.	.	.	2.3	11	28	-2.4
Cc1ccc(Nc2c(-c3ccccn3)nc3cccc(C)n23)cc1	-0.9	i	0.28*	15	99*	4.6	-59	-78	-30
CC(=O)Nc1ccc(S(=O)(=O)N2CCN(CCCOc3cc(C)ccc3C)CC2)cc1	3.0	.	0.68	4	-3	0.5	.	.	.
Cc1ccc(S(=O)(=O)N2C[C@H]3[C@H]4C(=O)N(c5ccccc5)C(=O)[C@H]4C[C@H](OC(=O)NCC4CCCCC4)[C@@]3(O)C2)cc1	.	.	.	.	.	3.7	5	2	-0.9
CCOC(=O)c1cc(C#N)c(SCC(N)=O)[nH]c1=O	-54	i	0.7	18	-17	-16	12	5	4.1
Cc1cccc(NC(=O)COC(=O)C(NC(=O)c2cccc(S(=O)(=O)N3CCOCC3)c2)C(C)C)c1 (stereo unspecified)	-1.4	i	0.67	-3	.	3.2	.	.	.
CN(c1ccc(C(=O)Nc2ccccc2C(F)(F)F)cc1)S(C)(=O)=O	-0.9	.	0.75	-3	-1	-0.9	.	.	.
O=C(COC(=O)c1cc2c(s1)CCCCC2)NC1CCS(=O)(=O)C1 (stereo unspecified)	4.5	i	0.72	-3	1	-0.2	-3	-4	-2.4
CC12CC3(C)CC(C)(C1)CC(NC(=O)N1CCCC1)(C2)C3	-0.7	.	0.71	10	-5	-2.8	.	.	.
Cn1c(=O)[nH]c(=O)c2c1nc1n2CC(O)CN1c1ccccc1 (stereo unspecified)	4.3	i	0.7	-11	13	3.9	16	19	-0.7
Cc1ccc(-c2nn(CCC(=O)NC(C)C)c(=O)c3ccccc23)cc1	2.1	i	0.71	-11	7	-3.6	6	2	1.8
C[C@@H]1CC[C@]2(C(=O)O[C@@H]3O[C@H](CO)[C@@H](O)[C@H](O)[C@H]3O)CC[C@]3(C)C(=CCC4[C@@]5(C)CC[C@H](O[C@@H]6OC[C@H](O)[C@H](O[C@@H]7O[C@H](CO)[C@@H](O)[C@H](O)[C@H]7O)[C@H]6O)C(C)(C)C5CC[C@]43C)C2[C@]1(C)O (stereo partly specified)	0.4	i	.	-7	1	1.8	9	5	6.2
Cc1ccc(-n2nnnc2CNC(=O)C(=O)c2c[nH]c3ccccc23)cc1C	.	i	.	.	.	0.4	-36	-59	2.9
NC(=O)c1ccc(Nc2ccc3nonc3c2[N+](=O)[O-])cc1	2.9	i	0.66	-7	-20	2.3	-12	-4	3.0
Cc1cnc(CNc2nc3cc(-c4ccccc4C)sc3c(=O)n2C)cn1	.	i	.	.	.	3.4	-22	-42	-13

More structures follow.
SMILES	UCH37 inh	FGF22 binding	E coli growth	Beta2AR agonist	ALR H2O2 inh	HNF4A DNA FP	Ecoli rRNA inh	Ecoli rRNA inh OD600	Ecoli rRNA inh RFP
Cc1cc(C)c(NC(=O)c2ccc3c(c2)C(=O)N(Cc2cccnc2)C3=O)c(C)c1	2.2	i	0.64	11	0	-0.3	1	1	-1.9
Cn1c(=O)n(CC(N)=O)c(=O)c2c1nc(Br)n2Cc1ccccc1	1.2	i	0.69	2	-1	-1.6	-9	-20	-4.7
NC(=O)c1cc([N+](=O)[O-])cc2c1C=Cc1ccccc1O2	1.7	i	0.71	1	-15	6.2	-9	1	2.4
O=C(Nc1ccccc1Cl)c1cc[n+]([O-])cc1	6.0	i	0.7	-1	-5	6.3	4	8	0.1
N#CCC(=O)Nc1ccc(C(=O)OCC(=O)Nc2sc3c(c2C#N)CCCC3)cc1	1.2	.	0.64	-3	.	8.8	-9	-9	8.8
Cc1cc(=O)[nH]c(Sc2c(-c3ccccc3)c3ccccc3[nH]c2=O)n1	-12	.	0.73	1	24	-0.2	.	.	.
N=c1oc2ccc3ccccc3c2cc1C(N)=S	-265	i	0.68	13	-46	-1.4	3	13	6.8
O=C(c1cc([N+](=O)[O-])ccc1N1CCCC1)N1CCCC1	15	i	0.74	3	.	-1.2	15	-8	1.6
C=CC1=C2C=C(C3CC3)N(CCCN(CC)CC)C=C2C(=O)C(C)(OC(=O)c2ccco2)C1=O (stereo unspecified)	2.6	i	0.68	-5	-19	-10	-5	-12	7.5
O=C(CC[C@H]1O[C@@H](n2ccc(=O)[nH]c2=O)[C@H](O)[C@@H]1O)N[C@H](Cc1ccccc1)C(=O)NCCCN1CCCC1=O	.	i	.	.	.	-1.0	15	21	1.3
Cc1cc(OCC(=O)Nc2ccc(F)c(F)c2)nc(C(C)C)n1	-0.1	i	0.67	-8	-6	3.8	19	10	1.5
CC1(C)CC(=O)C=C(c2ccc3ncccc3c2)C1	1.5	i	0.69	-11	-1	-2.3	-19	-14	1.8
CS(=O)(=O)N(CC(=O)N1CCCC1)Cc1ccc(Cl)c(Cl)c1	2.4	i	0.7	7	13	-0.8	2	1	-2.6
CCCCCCCOC1(c2ccccc2)OC(=O)c2ccccc21 (stereo unspecified)	3.6	.	0.71	27	62	-1.6	.	.	.
Cc1coc2cc3oc(=O)c(CCC(=O)NCCCn4ccnc4)c(C)c3cc12	-31	i	0.73	-3	-4	-1.4	-12	-7	-9.8
Cc1cc(C)cc(NC(=O)Nc2ccc3ccccc3n2)c1	4.8	i	0.64	11	2	0.4	7	10	-0.9
COc1cccc(CN2CC(C(=O)N(C)Cc3nc(C)cs3)CCC2=O)c1 (stereo unspecified)	0.8	i	0.7	0	.	-1.3	2	3	-3.7
O=C(Nc1ccc(Cl)c(S(=O)(=O)N2CCOCC2)c1)c1ccc(OCC2CCCO2)cc1 (stereo unspecified)	2.2	.	.	25	-5	-0.3	.	.	.
C=C(C)c1nc2cc(OC)c(OC)cc2c(=O)o1	0.5	.	0.66	-1	24	-1.6	.	.	.
O=[N+]([O-])c1cc2c(c(CSc3nnnn3-c3ccc(O)cc3)c1)OCOC2	4.6	i	0.66	-3	-2	2.5	-8	-4	3.2
Cc1ccc(C(=O)Nc2ncccc2C)cc1S(=O)(=O)N1CCOCC1	7.3	i	0.66	9	-5	-0.4	22	16	3.5
CC(C)c1nc(SCc2ccccn2)c2c(=O)n(C)c(=O)n(C)c2n1	1.6	i	0.7	-8	.	0.2	-6	-1	-11
O=C(O)C1CSC(c2ccncc2)N1 (stereo unspecified)	3.0	.	0.77	2	-34	-6.0	.	.	.
O=C(/C=C/[C@H]1O[C@@H](n2cnc3c(NC(=O)c4ccccc4)ncnc32)[C@H](O)[C@@H]1O)NC1CCCCC1	.	i	.	.	.	-1.3	15	8	2.1
Cc1ccc(N(C(=O)c2ccco2)C(C(=O)NC2CCCC2)c2cccnc2)cc1 (stereo unspecified)	1.5	i	0.65	2	-3	1.5	4	11	2.4

A draw from above in order of heavy-atom count, lowest first:
SMILES	UCH37 inh	FGF22 binding	E coli growth	Beta2AR agonist	ALR H2O2 inh	HNF4A DNA FP	Ecoli rRNA inh	Ecoli rRNA inh OD600	Ecoli rRNA inh RFP
NC(=O)c1cc([N+](=O)[O-])cc2c1C=Cc1ccccc1O2	1.7	i	0.71	1	-15	6.2	-9	1	2.4
CS(=O)(=O)N(CC(=O)N1CCCC1)Cc1ccc(Cl)c(Cl)c1	2.4	i	0.7	7	13	-0.8	2	1	-2.6
Cc1ccc(N(C(=O)c2ccco2)C(C(=O)NC2CCCC2)c2cccnc2)cc1 (stereo unspecified)	1.5	i	0.65	2	-3	1.5	4	11	2.4

(next part)
SMILES	UCH37 inh	FGF22 binding	E coli growth	Beta2AR agonist	ALR H2O2 inh	HNF4A DNA FP	Ecoli rRNA inh	Ecoli rRNA inh OD600	Ecoli rRNA inh RFP
O=C(CSc1nc2ccccc2c(=O)n1Cc1ccc(F)cc1)NCc1cccs1	0.8	i	0.71	-2	-8	4.5	4	1	1.0
O=C(O)C(=Cc1ccccc1)Cc1ccccc1	0.6	i	0.64	5	.	-0.6	-6	0	6.9
COc1cc(NC(=O)CC2NCCNC2=O)cc(OC)c1 (stereo unspecified)	1.6	.	0.71	1	-5	-0.5	.	.	.
COc1ccc(-c2csc(NNC3=NCCCCC3)n2)cc1	6.3	i	0.64	.	8	.	12	4	1.9
Cc1nn(-c2ccccc2)cc1/C=N/NC(N)=S	.	i	.	3	97*	0.1	-21*	4.1*	-5.6*
COc1cc(NC(=O)c2cccc(Cl)c2)c(OC)cc1NC(=O)CN1CCOCC1	-0.6	.	0.72	8	11	3.5	.	.	.
Cc1ccccc1NC(=O)/C=C/c1cccc(C(F)(F)F)c1	-1.1	i	0.67	5	-1	0.1	6	10	7.4
O=C(Oc1ccc(-c2nnco2)cc1)N1CCOCC1	-0.1	.	0.74	-3	-7	1.4	.	.	.
O=C(CCS(=O)(=O)c1ccc(F)cc1)Nc1nccs1	.	i	.	.	.	0.8	2	4	-0.8
CCOC(=O)CSc1nc2c(c(=O)n(Cc3ccccc3Cl)c(=O)n2C)n1C	1.9	.	0.72	3	-1	0.3	.	.	.
Cc1cc(C(=O)OCC(=O)N(C)c2ccccc2)c(C)o1	-0.5	i	0.72	-5	-2	0.9	1	0	-3.9
CC(=O)NC(O)C(=O)c1ccccc1 (stereo unspecified)	-1.6	.	0.71	0	-2	-2.1	.	.	.
Cc1ccccc1CSc1nnc(CCCCCNC(=O)OC(C)(C)C)o1	1.9	i	0.71	1	-5	-0.3	-5	-8	-0.3
Cc1ccc(C2=NN(C(=O)CCCC(=O)O)C(c3ccc4c(c3)OCO4)C2)cc1 (stereo unspecified)	3.7	i	0.7	7	1	2.0	-33	-40	-1.1
COc1ccc(CCNC(=O)CCn2c(=O)c3ccccc3n(CC(=O)NCC3CCCO3)c2=O)cc1OC (stereo unspecified)	3.8	i	0.72	4	-17	2.4	3	10	5.0
CN(C)/C(CN1CCN(C=O)CC1)=C1\N=C(c2ccccc2)OC1=O	20*	.	0.68	-9	23	1.7	.	.	.
COc1ccccc1-c1nnc(NC(=O)CCS(=O)(=O)c2ccccc2)o1	1.2	i	0.66	-5	-4	2.5	13	7	-1.6
N#Cc1cc2cc3c(cc2nc1SCC(=O)N1CCCC1)OCCO3	-9.2	.	0.7	12	-3	2.8	.	.	.
